Screens as filed in PubChem BioAssay.
Six1-Eya2 blk: blocks human Six1 binding to Eya2. Q15475+O00167. AlphaScreen GST-Six1/His-Eya2 binding, biochemical; stronger effect = lower value; control for the full effect not named in the record. activity change, % (test concentration not listed). 360,000 compounds, 0.56% hits; in the data active = activity change below about -65%; inconclusive = about -30% to -65%; inactive = above about -30%; further: on the % scale 0 is the no-effect control and ±100 the full control effect
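AlphaScreen with GST-Six1 and His-Eya2 (5X mix: 250 nM and 500 nM), glutathione donor and nickel acceptor beads; buffer 50 mM Tris pH 8.0, 300 mM NaCl, 1 mM TCEP; 1 h at 37 C in the dark.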
Sfp inh: Sfp phosphopantetheinyl transferase inhibition; Q9F4F7; Biochemical Sfp PPTase activity, qHTS; Potency, µM, without a hit: max response, negative = inhibition, hits mostly inhibitors; 310,000 compounds, 3.5% hits; active means well fitted inhibition curve with a large enough effect; inconclusive means small, poorly fitted or top-dose-only effect, or another doubt; inactive means no such curve, though single readings can be large or run the other way;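 further: the enzyme is Sfp with the accession as filed and its product quenches rhodamine fluorescence; potency means the concentration at half of the fitted maximal effect; 0% = enzyme reaction without inhibitor and -100% = no enzyme wells; top concentration of the series not given in the record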
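Sfp 15 nM + cpd, 15 min RT; start w/ rhodamine-CoA 5 uM, BHQ-2-YbbR 12.5 uM (final); 50 mM Hepes pH 7.6, 10 mM MgCl2, 0.01% NP-40, 0.01% BSA; read 525/598 nm at 0 and 30 min.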
D2 agonist: human D2 receptor agonism in beta-arrestin assay | P14416 | DiscoveRx PathHunter D2 beta-arrestin, luminescence, 90 min; 100% = 57 uM dopamine signal | activation, % (concentration not given with the values) | 360,000 compounds, 0.084% hits | AID 624465; in the data active = activation above about 40%; inconclusive = about 15% to 40%; inactive = below about 15%; further: the text of the record calls up to 30% inactive
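DiscoveRx PathHunter D2 beta-arrestin cells (2,100/well) attached overnight, then compound-stimulated 90 min at 37 C in HBSS/10 mM HEPES/0.1% Tween-20 buffer; beta-galactosidase complementation read by luminescence after 1 h at ambient temperature. Dopamine 57 uM final (EC100) as control.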
TRPV1 potentiator: potentiators of human vanilloid receptor 1 (TRPV1). potentiation, % at 8.33 µM. Q8NER1. AID 540277. TRPV1-expressing cells, Fluo-8 calcium influx, capsaicin EC20 potentiation; host cell line not named in the record; control for the full effect not named in the record. 320,000 compounds, 0.02% hits; active means potentiation above 80%; inconclusive means 30% to 80%; inactive means below 30%; further: 0% is about no effect
Target sequence (Q8NER1 whole entry, looked up): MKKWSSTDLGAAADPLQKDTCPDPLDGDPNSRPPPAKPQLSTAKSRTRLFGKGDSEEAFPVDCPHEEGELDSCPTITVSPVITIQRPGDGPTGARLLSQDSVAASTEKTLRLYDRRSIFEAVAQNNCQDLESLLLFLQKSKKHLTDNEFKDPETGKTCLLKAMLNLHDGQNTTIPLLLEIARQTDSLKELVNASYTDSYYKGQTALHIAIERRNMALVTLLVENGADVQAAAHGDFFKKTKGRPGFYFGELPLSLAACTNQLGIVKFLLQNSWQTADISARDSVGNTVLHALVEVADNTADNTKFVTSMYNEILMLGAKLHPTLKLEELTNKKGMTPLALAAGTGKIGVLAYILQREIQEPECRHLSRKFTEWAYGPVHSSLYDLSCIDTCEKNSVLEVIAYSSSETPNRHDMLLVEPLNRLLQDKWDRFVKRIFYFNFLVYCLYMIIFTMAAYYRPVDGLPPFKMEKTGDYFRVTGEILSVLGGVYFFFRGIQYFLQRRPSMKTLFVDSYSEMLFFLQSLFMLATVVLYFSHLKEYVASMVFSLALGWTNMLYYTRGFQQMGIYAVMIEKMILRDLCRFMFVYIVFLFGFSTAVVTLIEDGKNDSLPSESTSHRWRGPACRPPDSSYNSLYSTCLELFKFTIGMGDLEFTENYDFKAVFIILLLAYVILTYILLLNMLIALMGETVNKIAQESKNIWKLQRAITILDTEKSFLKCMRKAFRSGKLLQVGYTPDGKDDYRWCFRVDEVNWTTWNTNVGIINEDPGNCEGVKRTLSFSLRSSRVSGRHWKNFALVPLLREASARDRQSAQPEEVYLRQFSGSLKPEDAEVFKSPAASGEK
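Cells expressing TRPV1 were dye-loaded with Fluo-8 and read kinetically: 10 s baseline, 3 min after compound (agonist portion), then 2 min after EC20 capsaicin (allosteric enhancer portion). Calcium-bound dye fluorescence at 480/520 nm.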
D2 potentiator: human D2 receptor positive allosteric modulation | P14416 | DiscoveRx D2 beta-arrestin cells, luminescence, 90 min; 100% = 57 uM dopamine signal | potentiation, % (test concentration not listed) | 360,000 compounds, 0.23% hits; active = potentiation of 50% or more; inconclusive = 30% to 50%; inactive = 30% or less;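 further: compound concentration not given in the record; tested on top of an EC20 dose of dopamine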
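PathHunter beta-arrestin assay in DiscoveRx D2 cells. Compounds were added with an EC20 of dopamine (50 nM final) for 90 min at 37 deg C. Luminescence was read 1 h after detection reagent, with 57 uM dopamine as the EC100 control.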
PINK1 expr mod: modulators of PINK1 expression. PINK1 immunofluorescence, high-content cytometry, 24 h. Potency, µM (top dose mostly 76.6 µM), for the others: top-dose activation (PINK1 increase), most hits filed as activators. 410,000 compounds, 0.2% hits; active = well fitted activation curve with a large enough effect; inconclusive = small, poorly fitted or top-dose-only effect; inactive = flat fitted curve, though single readings scatter; cell line not stated here;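 further: potency means the concentration at half of the fitted maximal effect; % of control where 0% means no effect; nearly all actives have a fitted effect of over 65% in size; a mitochondrial uncoupler was the plate control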
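Stable cell line, 250 cells/well, 12 h attachment; compounds pinned at 5 concentrations, 24 h; CCCP control. Fixed with nuclear dye, primary antibodies 12 h at 10 degrees C, secondary plus cell stain; laser-scanning cytometer read.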
CtBP-E1A inh: blocks the CtBP interaction with E1A. AlphaScreen GST-E1A/His-CtBP binding, 1536-well; stronger effect = lower value; control for the full effect not named in the record. activity change, % (concentration not given with the values). 340,000 compounds, 0.49% hits. AID 651724; in the data active means activity change below about -65%; inconclusive means about -30% to -65%; inactive means above about -30%; further: on the % scale 0 is the no-effect control and ±100 the full control effect
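Protein mix (5X: 125 nM each GST-E1A, His-CtBP) was incubated with pinned compound 2 h at 37 deg C in dark, in 50 mM Tris pH 8.0 buffer with 300 mM NaCl. Glutathione donor and nickel acceptor beads followed; AlphaScreen signal read after 1 h.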
An asterisk follows results filed as active; u = inconclusive; x = not tested or not shown; & = joins results of further samples; [ ] = dose if it differs, or a comment. An unsorted share of the library, and some 3.7% of all compounds hit somewhere here.

Start of the listing, in advance, three compounds:
mol | Six1-Eya2 blk | Sfp inh | D2 agonist | TRPV1 potentiator | D2 potentiator | PINK1 expr mod | CtBP-E1A inh
CCCC(=O)NC(=S)Nc1ccc(S(=O)(=O)N2CCc3ccccc32)cc1 | -14 | x | -2.7 | x | -8 | 1.0% | -8
CC(=O)Nc1ccc(NC(=O)C(C)Oc2ccccc2C(=O)NCc2ccccc2)cc1 (stereo not given) | 3 | x | -3.7 | u | 2 | 0.4% | x
CN(C)/C=C(/C(=O)c1ccccc1)n1cncn1 | 6 | 3% | 2.7 | 28 | -5 | 1.7% | -1

The listing, repeating the preview:
mol | Six1-Eya2 blk | Sfp inh | D2 agonist | TRPV1 potentiator | D2 potentiator | PINK1 expr mod | CtBP-E1A inh
CCCC(=O)NC(=S)Nc1ccc(S(=O)(=O)N2CCc3ccccc32)cc1 | -14 | x | -2.7 | x | -8 | 1.0% | -8
CC(=O)Nc1ccc(NC(=O)C(C)Oc2ccccc2C(=O)NCc2ccccc2)cc1 (stereo not given) | 3 | x | -3.7 | u | 2 | 0.4% | x
CN(C)/C=C(/C(=O)c1ccccc1)n1cncn1 | 6 | 3% | 2.7 | 28 | -5 | 1.7% | -1
COc1cc(/C=C2\N=C3CCCCCN3C2=O)ccc1O | 12 | 9% | -0.2 | -4 | -13 | u | 49
N#Cc1cccc(NC(=O)c2cc(C3CCCCN3C(=O)c3ccccn3)on2)c1 (stereo not given) | -4 | x | 4.5 | x | 6 | 1.0% | 5
CCOc1ccc(OCC)c(NC(=O)C2CCN(c3cnccn3)CC2)c1 | -9 | 9% | -0.8 | -22 | -2 | -0.4%&1.4% | -7
CNc1nnc(-c2cccc(N(C)C)c2)s1 | 0 | -2% | -3.0 | 12 | 17 | 0.0% | 2
COc1ccc(C(=O)Nc2nnc(C3=COCCO3)o2)cc1OC | -18 | 23% | -4.4 | 5 | -1 | 0.2% | 2
O=C(Nc1ccccc1)N(C1=NCCCCS1)c1cccc2ccccc12 | -5 | 20% | -5.0 | 1 | -9 | 7.2% | 0
Cc1ccccc1CN1CCN(S(=O)(=O)c2ccc(Cl)s2)CC1 | 7 | -3% | -5.6 | -12 | -31 | 5.1% | 24
CCc1ccc(Nc2ncccc2C#N)cc1 | 17 | 2% | -1.7 | -13 | -19 | 0.6% | 4
CC(C)CCNC(=O)C12CN(Cc3ccccc3)CC1C(c1ccc([N+](=O)[O-])cc1)=NO2 (stereo not given) | -24 | 14µM* | -2.5 | -5 | -11 | -0.4% | -24
O=C(/C=C/c1ccco1)NC(=S)Nc1cccc(-c2nc3ccccc3o2)c1 | -26 | u | -1.2 | 4 | -5 | 6.2% | -13
Cc1nn(CC(=O)N2CCc3ccccc32)c(C)c1S(=O)(=O)NC(C)(C)C | 18 | x | -0.5 | x | -15 | 2.2% | 4
COc1ccc(C2=NS(=O)(=O)N(C)C(C(=O)NCc3ccco3)=C2)cc1OC | -7 | 7% | 1.1 | 26 | -2 | 0.3% | 2
COc1ccccc1CN(C)C(=O)COC(=O)c1ccc(Cl)nc1 | -3 | x | 1.5 | x | -7 | -1.0% | 6
COCC(C)n1c(SC(C)C(=O)NC2CCCCC2C)nc2ccccc2c1=O (stereo not given) | -4 | 15% | -3.1 | -21 | -7 | 2.6% | 7
OC[C@@H]1CN(Cc2ccc3c(c2)OCO3)C[C@H](n2cnc3c(NCc4ccncc4)ncnc32)O1 | 10 | x | -1.2 | x | -3 | 0.1% | -14
CN1CCN(C(=S)NC(=O)c2ccc(Cl)cc2)CC1 | 0 | 35µM* | 2.0 | 8 | -12 | -1.0% | -1
Cc1ccc(C(c2c(NC(=O)c3ccco3)sc(C)c2C)N2CCOCC2)cc1 (stereo not given) | 10 | x | -4.6 | x | -11 | -0.1% | 0
CCCCNC(=O)C1(O)c2cc(Br)ccc2NC(=O)N1c1cccc(OC)c1 (stereo not given) | -1 | 9% | 3.1 | 1 | 6 | 2.8% | -1
Cc1ccsc1CN(C)CC(=O)N(C)CC(=O)Nc1c(Cl)cccc1Cl | 2 | x | -3.4 | x | -9 | 2.0% | -8
Cc1c(C(=O)Nc2cccc([N+](=O)[O-])c2)sc2ncn(CC(=O)N3CCOCC3)c(=O)c12 | 5 | -4% | 1.2 | -6 | -9 | -0.8% | -5
COc1ccc(NC(=O)COC(=O)CNC(=O)COc2ccccc2)cc1OC | 2 | x | 2.6 | 13 | 4 | -0.3% | 0
Cc1ccc(S(=O)(=O)CCC(=O)OCC(=O)NCCc2ccccc2)cc1 | 5 | x | -5.2 | -6 | -1 | 1.5% | 1
C[N+]1(C)CCCC(OC(=O)C(O)(c2ccccc2)c2ccccc2)C1 (stereo not given) | -4 | 8% | 1.1 | x | 2 | 0.7% | 8
COc1ccc(CNC(=O)C2CCN(S(=O)(=O)N3CCCC3)CC2)cc1 | 3 | 4% | -2.1 | -3 | -9 | -2.0% | 2
COCC(=O)OCC(=O)N1N=C(c2ccc(Cl)cc2)CC1c1ccco1 (stereo not given) | 0 | -15% | -3.1 | 1 | -9 | -2.0% | -1
CCOC(=O)Cc1nn2c(=O)cc(C)nc2s1 | 8 | 3% | -0.1 | -5 | -18 | 0.6% | -1
COc1ccc(-n2nc(C(=O)NCC(=O)Nc3cccc(Cl)c3)c3ccccc3c2=O)cc1OC | 2 | 56µM* | -0.4 | 0 | -7 | 8.8% | -7

A few values from the entries so far:
Cc1ccccc1CN1CCN(S(=O)(=O)c2ccc(Cl)s2)CC1 in TRPV1 potentiator reads -12
N#Cc1cccc(NC(=O)c2cc(C3CCCCN3C(=O)c3ccccn3)on2)c1 (stereo not given) in D2 agonist reads 4.5
CCOC(=O)Cc1nn2c(=O)cc(C)nc2s1 in Sfp inh reads 3%

The main list resumes, starting two compounds before the break.
mol | Six1-Eya2 blk | Sfp inh | D2 agonist | TRPV1 potentiator | D2 potentiator | PINK1 expr mod | CtBP-E1A inh
CCOC(=O)Cc1nn2c(=O)cc(C)nc2s1 | 8 | 3% | -0.1 | -5 | -18 | 0.6% | -1
COc1ccc(-n2nc(C(=O)NCC(=O)Nc3cccc(Cl)c3)c3ccccc3c2=O)cc1OC | 2 | 56µM* | -0.4 | 0 | -7 | 8.8% | -7
CC1CN(C(=O)c2cccc(S(=O)(=O)N3CCN(c4ccccc4)CC3)c2)CC(C)O1 (stereo not given) | -4 | x | 2.7 | 4 | 12 | 1.2% | 0
C=CCN(c1ccc(OC)cc1)S(=O)(=O)c1ccc(Cl)c(C(=O)OCC(=O)NC2CC2)c1 | -2 | 12% | -1.7 | -8 | -5 | 0.2% | -1
Clc1ccc(CSc2nnc(/C=C/c3ccccc3)o2)c(Cl)c1 | 8 | 16% | 4.8 | 0 | -18 | 17% | 7
CCOC(=O)N1CCN(CC(=O)Nc2nc3ccccc3s2)CC1 | 5 | 3% | -2.3 | -4 | -4 | 2.4% | -1
O=[N+]([O-])/C=C/c1cn(Cc2ccc(F)cc2)c2ccccc12 | -4 | -16% | -4.0 | -11 | -8 | 4.2%[38.3 µM] | -10
Cc1ccc2c(CC(=O)N(CC3CCCO3)c3c(N)n(Cc4ccccc4)c(=O)[nH]c3=O)coc2c1 (stereo not given) | -1 | x | -1.7 | -6 | 10 | 2.5% | 2
O=C(O)C1=C(C(=O)Nc2cc(C(F)(F)F)ccc2Cl)CCCC1 | 8 | 7% | 2.6 | -2 | -5 | -0.5% | 11
C=CCNC(=O)c1n[nH]c2c1CC(C(C)(C)CC)CC2 (stereo not given) | 2 | x | -1.2 | -79 | -8 | 2.5% | -12
CC(C)C[C@@]12C(=O)N(c3cccc(F)c3)C(=O)N1[C@H](c1ccc(Br)cc1)[C@@H]1C(=O)N(C(C)(C)C)C(=O)[C@@H]12 | 10 | x | -4.0 | -19 | -12 | 2.0% | x
CC(C)N1CCC(N2CCN(Cc3ccc(Oc4ncccn4)cc3)CC2CCO)CC1 (stereo not given) | 1 | -6% | -18 | -12 | 1 | 0.7% | 1
Cc1cc([N+](=O)[O-])nn1Cc1ccc(C(=O)N/N=C/c2ccccc2)cc1 | -14 | 4% | 0.2 | -8 | -8 | -1.0% | -25
Cc1cc(C(=O)N/N=C/c2ccc(O)c(O)c2O)c(C)n1-c1ccccc1 | u | 8.9µM* | u | -20 | 1 | 0.5% | u
C/C(=N/NS(=O)(=O)c1ccccc1)c1c[nH]c2ccccc12 | 0 | -9% | 5.7 | 16 | -1 | 0.2% | -12
CCCC(NS(=O)(=O)c1ccc(Br)cc1)C(=O)O (stereo not given) | 2 | 19% | -1.0 | 1 | -7 | -1.6% | -5
Cc1ccc(-c2nc3cccnc3s2)cc1NC(=O)C1c2ccccc2Oc2ccccc21 | 3 | -6% | -5.8 | 7 | 0 | 6.4% | 4
O=C(O)c1ccc([N+](=O)[O-])cc1 | 7 | x | -1.3 | x | -3 | -0.8% | -3
CCN(CC)C(c1ccc(F)cc1)c1nnnn1C1CCCCC1 (stereo not given) | 6 | 6% | 2.2 | -10 | -8 | x | 2
COc1ccc(CN=C2Nc3ccccc3CS2)cc1 | 6 | 18% | 1.5 | 8 | -27 | x | -3
CCc1nccn1CCC(=O)NC1CC(C)(C)Cc2c1cnn2-c1ccc(C)cc1 (stereo not given) | 1 | 16% | -5.1 | -2 | -17 | 1.5% | 4
COc1ccc(NC2CCCN(C(=O)CCCn3cncn3)C2)cc1OC (stereo not given) | -1 | 1% | 2.4 | 8 | 2 | 0.2% | 1
ON=C1/C(=N\O)CC2(C/C1=N/O)OCCO2 | u | -4% | 2.8 | 8 | 11 | 4.0%[38.3 µM] | u
CC(C)N(C=O)C1(C(=O)NC2CCCCC2)CCCCC1 | 8 | 18% | -1.5 | 4 | -9 | -0.7% | 5
CN1Cc2c(N3CCOCC3)nc(SCCC#N)c(C#N)c2CC1(C)C | 1 | 7% | -1.5 | -19 | -1 | 1.9% | 7
Cc1ccc(C)c(NC(=O)c2cc3ccccc3o2)c1 | 14 | 4% | -4.9 | -25 | -2 | 1.3% | x
